MgrA DNA FP: S. aureus MgrA-DNA binding modulation; inhibition, %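 (about 10 µg/mL by stock and volumes)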; 84,000 tested, 0.13% active; fluorescence polarization;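 active means above 50% in either of two replicates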;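 further: 0% = protein plus DNA without compound and 100% = DNA alone without protein; higher means less MgrA bound to DNA so lower polarization; one replicate is shown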
S aureus helic: blocks Staphylococcus aureus DNA helicase | purified S. aureus helicase, fluorescence unwinding assay; about half of the hits fall short of the stated cut | inhibition, %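 (tested at about 80 µM)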 | 120,000 tested, 0.05% active | AID 485395;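 active means both duplicates at 50% or more, or one of them with a favoured structure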;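 further: 0% = mean of negative control wells and 100% = mean of positive control wells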
Numbers without * were called inactive; i = inactive; . = no result given; & = joins results of further samples. The list is partial. The share of hits here may be higher or lower than overall.

Below each SMILES: MgrA DNA FP	S aureus helic
> COCCCn1c(SCc2cc(C(=O)OC)c(C)o2)nnc1-c1ccccc1Cl
    .	11
> O=C(O)Cc1sc(-c2ccccn2)nc1-c1cccs1
    .	-6
> CCN(CC(=O)Nc1ccccc1OC)Cc1cc(=O)n2c(-c3ccccc3)csc2n1
    .	-7
> CCN1C(=O)C(C)S/C1=C(/C#N)C(=O)NCc1ccco1 (stereo not drawn)
    .	8
> Cc1cc(C(=O)COc2ccc3oc4ccccc4c3c2)c(C)n1CC1CCCO1 (stereo not drawn)
    .	15
> CC1(C)CC(=O)C=C(Nc2ccc3c(c2)OCCO3)C1
    -0.2	4
> O=C(CCCN=C1NS(=O)(=O)c2ccccc21)Nc1ccccc1N1CCOCC1
    .	-21
> CN(c1cnn(-c2ccc(Cl)cc2Cl)c(=O)c1Cl)N1CC(C)(C)C1=O
    .	2
> Cn1c(=O)c2c(nc(SCC(=O)N3CCCCC3)n2C)n(C)c1=O
    -2.2	16
> CCNc1nc(NCC)n2c(SCC(=O)N3CC4(C)CC3CC(C)(C)C4)nnc2n1 (stereo not drawn)
    .	-13
> CC(C(=O)O)c1ccc(-c2ccccc2)c(F)c1 (stereo not drawn)
    0.2&-0.4	.
> COc1ccccc1CNC(=O)CN1NS(=O)(=O)c2ccccc2C1=O
    .	7
> Cc1cc(N=NNc2cc(C)on2)no1
    0.9	.
> O=C(NCCc1c[nH]c2ccccc12)c1ccc2c(c1)NC(=O)C1CCCN21 (stereo not drawn)
    .	-20
> CN=c1scc(-c2ccc(NC(C)=O)cc2)n1C
    .	27
> CC(C)C(NS(=O)(=O)c1ccc(Br)s1)C(C)C
    0.5	5
> COc1ccc(OC)c(C(c2sc3nc(C)nn3c2O)N(C)Cc2ccccc2)c1 (stereo not drawn)
    .	0
> Cc1ccc(-c2csc3ncn(-n4c(C)ccc4C)c(=O)c23)o1
    -0.6	-9
> CSc1nnc(-c2ccccc2)n1N
    5.2	-1
> CCn1c(SC)nnc1-c1nnc(SC)n1CC
    .	44
> COC(=O)c1sccc1-c1ccc(/C=N/OCc2cc(F)cc3c2OCOC3)o1
    .	0
> CC(C)Nc1nc(NC(C)C)nc(OCCNC(=O)COc2ccc(Cl)cc2Cl)n1
    -0.1	.
> CCOc1nc2ccccc2c(=O)[nH]1
    -1.0	-1
> CC(Oc1ccccc1)C(=O)N1CCN(c2ccc(N3CCCCC3)nn2)CC1 (stereo not drawn)
    .	1
> O=c1c2ccccc2[nH]c(=S)n1CCC1=CCCCC1
    .	1
> CCOC(=O)C(Cc1ccccc1Cl)Sc1nnc(N)s1 (stereo not drawn)
    .	12
> CC(Oc1ccccc1F)C(=O)NCc1ccc2c(c1)OCO2 (stereo not drawn)
    0.5	-13
> COc1cc(C=Nc2c(C)n(C)n(-c3ccccc3)c2=O)ccc1OC(=O)c1ccco1
    .	-12
> Oc1ccc(Br)cc1CNCc1ccccc1
    5.5	9
> CCC(=O)NCC(c1ccc(N(C)C)cc1)N1CCOCC1 (stereo not drawn)
    .	-7
> COc1ccc(CCN(C)C2CC(=O)N(c3ccccc3)C2=O)cc1OC (stereo not drawn)
    .	13
> O=C(Nc1ccc2[nH]c(=O)[nH]c2c1)c1cc2ccccc2o1
    7.0	3
> CC1=NN(C2CCS(=O)(=O)C2)C(=O)C12Cc1c(C)nn(-c3ccccc3)c1N1CCCCC12 (stereo not drawn)
    .	-1
> CCN(CC)c1ccc2cc(-c3nc4ccccc4[nH]3)c(=O)oc2c1
    11	i
> COC(=O)c1ccc([N+](=O)[O-])cc1Cl
    2.2	.
> O=C(Cc1c(Cl)cccc1Cl)NC1=NCCS1
    .	-6
> CC(=O)Nc1nc(C23CC4CC(CC(C4)C2)C3)cs1
    -2.8	19
> CN(C)c1nc(NCc2ccccc2)nc(Nc2ccc(OC(F)(F)F)cc2)n1
    -0.9	8
> CCN(CC)C(=S)CSc1nc(-c2ccccc2)cc(-c2ccco2)c1C#N
    -0.7	-45
> COc1cc(CNc2ccc(F)cc2C)cc(OC)c1
    .	10
> CC(C)N(C(=O)CSc1ccccc1C(=O)O)c1ccccc1
    .	9
> COC(=O)Cn1c2ccccc2c2nc3ccccc3nc21
    .	4&-10
> COc1cc(OC)cc(C(=O)NC(C(=O)O)C23CC4CC(CC(C4)C2)C3)c1 (stereo not drawn)
    .	7
> CC1(C)CC(=O)C/C(=N/Nc2nc3ccccc3s2)C1
    .	2
> N#C/C=C/c1cc(C(F)(F)F)cc(C(F)(F)F)c1
    1.0	.
> COC(=O)Nc1ccc(S(=O)(=O)N(C)C)cc1
    -0.2	7
> O=C(Nc1ccc(F)cc1)c1oc2ccccc2c1CSc1ncn[nH]1
    .	-9
> COc1ccc(C(=O)NCC2COc3ccccc3O2)cc1OC (stereo not drawn)
    -1.0	-3
> O=C(CCCC(=O)c1ccccc1)Nc1nc2ccc(Br)cc2s1
    2.5	3
> COC(CN(C)C(=O)C1CCC(CNS(=O)(=O)c2ccc(Cl)cc2)CC1)OC (stereo not drawn)
    .	-18
> N#Cc1cnc(N2CCN(c3ccccc3)CC2)nc1N
    .	28
> Cc1ccc(Oc2ccc(S(=O)(=O)N3CCOCC3)cc2C(N)=O)c(-n2nc3ccccc3n2)c1
    .	1
> COc1cc(C)nc(NC(=O)NS(=O)(=O)c2ccccc2NC(=O)C(F)(F)F)n1
    -1.2	1
> CCOC(=O)/C(=C\Nc1ccc(F)cc1)S(=O)(=O)c1ccc(Cl)cc1
    1.0	.
> O=C(CCN1C(=O)c2ccccc2C1=O)Oc1ccc2c3c(c(=O)oc2c1)CCC3
    2.5	9
> COc1cc(/C=N\n2c(C)n[nH]c2=S)cc(OC)c1OC
    .	-12
> Cc1ccc(-c2cc(-c3ccccc3)nc(N3CCCC3)n2)cc1
    4.0	-6
> N#CCSc1[nH]c(=O)c(-c2nc(-c3ccccc3)cs2)cc1C#N
    .	-11
> Cc1cccc(NC(=O)CC(NCc2ccco2)C(=O)O)c1C (stereo not drawn)
    .	4
> OC(C#Cc1ccccc1)C#Cc1ccccc1
    2.5	-18

The list goes on.
Below each SMILES: MgrA DNA FP	S aureus helic
> CCOc1ccc(NC(=O)Cn2c(=O)n(C3CCCC3)c(=O)c3cc(OC)c(OC)cc32)cc1
    .	-9
> Cc1ccc(C)c(C(=O)CSc2nnc(C)s2)c1
    1.4	7
> Cc1ccc(NC(C#N)c2c(C)[nH]c(=O)[nH]c2=O)cc1 (stereo not drawn)
    -0.1	3
> COc1nc(NCCO)nc(Nc2ccc(I)cc2C)n1
    -0.3	1
> O=C(Cc1ccccc1)c1ccccc1C(=O)NCc1cccs1
    3.2	9
> COc1ccc(C=C2C(=O)OC(C)(C)OC2=O)cc1OC
    .	27
> O=C(Oc1ccccc1)c1cc(-c2ccccc2)c(C(F)(F)F)s1
    0.6	.
> CCOC(=O)c1c(C)csc1NC(=O)CC(=O)C(F)(F)F
    .	16
> NCC(O)COCc1ccco1 (stereo not drawn)
    0.1	2
> CCCCC(CC)CN=C(N)NC(N)=NCCCCCCN=C(N)NC(N)=NCC(CC)CCCC (stereo not drawn)
    -0.2&-1.4	.
> O=C(NC1CC1)C1CCN(C(=O)c2sccc2-n2cccc2)CC1
    .	-15
> CCOC(=O)CC1C(=O)NCCN1C1CCCCC1 (stereo not drawn)
    .	-25
> C1CCN(CC2COC3(CCCC3)O2)CC1 (stereo not drawn)
    .	-14
> CC(NC(=O)CSc1nnc(-c2ccco2)n1-c1ccccc1)c1ccccc1 (stereo not drawn)
    .	9
> O=C1CC(N2CCSCC2)C(=O)N1CCc1ccccc1 (stereo not drawn)
    2.7	0
> Cn1c(Cc2ccccc2)n[nH]c1=S
    5.5	13&-5
> CC(C)C(=O)Nc1ccc(NC(=O)C(C)(C)C)cc1
    0.1	8
> CCCCc1ccccc1NC(=O)NCCC
    -0.8	-13
> CNC(=O)NC(=O)CSc1nc2ccccc2s1
    .	-12
> COc1ccc(C(=O)Nc2nnc(-c3ccc(Cl)cc3)o2)cc1
    .	4
> Cn1cc(/C=N/NC(=O)CC#N)c2ccccc21
    3.1	8
> CN(C)N=Nc1ccccc1C(=O)NCc1ccc(Cl)cc1
    .	-8
> CCOC(=O)c1c(CN(C)C)n(-c2ccccc2)c2cc(Br)c(OC)cc12
    -1.4	-3
> COCCn1c(-c2ccc3c(c2)NC(=O)CO3)csc1=Nc1ccccc1
    .	31
> CC(=O)Nc1sc2c(c1C(=O)OCC(=O)c1cc(C)n(C3CC3)c1C)CCCC2
    .	5
> COc1ccc(-c2cc3ccccc3n2CC(O)CN2CCN(CCO)CC2)cc1 (stereo not drawn)
    .	19
> C/C(=N\O)C(C)(C)Nc1ccc(Cl)cc1
    -0.1	.
> Cc1nc(NCCNC(=O)c2cccs2)c2c3c(sc2n1)CCCC3
    -0.5	1
> CC(=O)NCCOc1cccc2cccnc12
    -7.1	11
> CC(=O)Nc1nc(NC(C)=O)n(-c2ccccc2)n1
    -0.4	-14
> COc1ccc(C(=O)CSc2n[nH]c(=O)n2Cc2ccco2)cc1
    1.1	.
> CC1(C)CC(=O)C2=C(C1)N(c1ccccc1C(F)(F)F)C(=O)CC2c1cccs1 (stereo not drawn)
    -2.0	13
> CCNC(=S)N1CCN(S(=O)(=O)c2ccc(Cl)cc2)CC1
    0.7	7
> CC(Sc1ncnc2c1cnn2-c1ccccc1)C(=O)Nc1ccnn1C(C)C (stereo not drawn)
    .	-10
> COc1ccccc1C(=O)NCCC(=O)Nc1ccc(S(N)(=O)=O)cc1
    .	6
> CN(C)S(=O)(=O)c1cccc(C(=O)Nc2nc3ccc(F)cc3s2)c1
    .	4
> COc1ccc(Br)cc1CSc1nnc(-c2cccs2)n1C1CC1
    .	9
> CCc1ccc(NC(=O)CCn2cccc2)cc1
    3.1	17
> O=S(=O)(CCN1CCOCC1)c1ccc(Oc2ccc(S(=O)(=O)CCN3CCOCC3)cc2)cc1
    0.1	2
> COc1ccc(N(C(=O)c2cccnc2)S(=O)(=O)c2cccc3cccnc23)cc1
    .	6
> CC(OC(=O)c1cccc(-n2cnnn2)c1)C(=O)Nc1ccccc1F (stereo not drawn)
    .	15
> CN1C(=O)/C(=C2/Sc3ccc(Cl)cc3N2C)SC1=S
    .	30
> NS(=O)(=O)c1ccc(N=Cc2ccc3c(c2)OCO3)cc1
    0.6	.
> N#CCCn1ccc(NC(=O)c2ccc(Cl)cc2)n1
    4.0	-26
> Cc1sc2nc(SCC(=O)N3CCCC3)[nH]c(=O)c2c1C
    .	3&9
> Cc1cc(C)n(CC(O)CN(c2ccccc2)S(=O)(=O)c2ccccc2)n1 (stereo not drawn)
    1.5	-5
> CSc1nnc2c3cc(C)ccc3n(C)c2n1
    -0.9	33
> Cc1ccc(C(=O)CCC(=O)Nc2nnc(C)s2)cc1
    -0.5	-2
> CCOC(=O)c1c(NC(=O)c2cc(OC)c(OC)c(OC)c2)sc(C(=O)Nc2cccc(C(F)(F)F)c2)c1C
    -0.3	.
> O=C(O)CCc1c[nH]c2ccccc12
    1.5	.
> C=CCc1c(C)nc(SC)[nH]c1=O
    2.9	1
> Cc1nn(-c2ccccc2)c(Cl)c1C1C(C#N)=C(N)OC2=C1C(=O)CC(C)(C)C2 (stereo not drawn)
    -0.6	.
> Cc1coc2cc3oc(=O)c(CC(=O)NCc4ccco4)c(C)c3cc12
    .	-16
> COc1ccccc1NC(=O)CC(O)(C(F)(F)F)C(F)(F)F
    1.2	20
> O=C(OCCN1C(=O)c2cccc3c(N4CCOCC4)ccc(c23)C1=O)c1ccccc1Cl
    -0.8	.
> Cc1cccc2cc3c(nc12)SC(=NCc1ccco1)N(Cc1cccs1)C3
    -0.7	6
> COC(=O)c1ccc(S(=O)(=O)Nc2ccc3c(c2)C(=O)OC3)n1C
    0.6	.
> CC(C)OCC(O)CN1CCN(c2ccccc2)CC1 (stereo not drawn)
    .	28
> N/C(CN1CCCC1=O)=N\OC(=O)c1ccccc1Cl
    .	-10
> CS(=O)(=O)N(Cc1ccc(Cl)cc1)c1ncc(C(F)(F)F)cc1Cl
    -0.7	.

(list continues)
Below each SMILES: MgrA DNA FP	S aureus helic
> Cc1ccccc1OCc1nc(SCC(=O)NC2CCCC2)n[nH]1
    .	3
> CCNc1nc(C)c(C(=O)O)s1
    -0.7	0
> O=C(N/C=C/c1ccccc1Cl)OCc1ccc(Cl)cc1
    3.3	.
> COc1cc(C(=O)NCCn2ccc3ccccc32)cc(OC)c1OC
    .	-11
> C1CCN=C(NCC2(N3CCCCC3)CCCCC2)CC1
    .	-2
> COc1cc(S(=O)(=O)N2CCN(C)CC2)ccc1Cl
    .	-24
> CN(C)C(=O)/C=C/c1ccc2c(c1)OCO2
    -0.4	-1
> O=C1c2ccccc2C(=O)N1CC(c1ccco1)N1CCCCC1 (stereo not drawn)
    .	-4
> S=C(NCc1ccco1)N1CCOCC1
    0.9	10
> Cc1cc(O)c(Cc2cc(Cl)c3cccnc3c2O)c(=O)o1
    .	17
> CCc1cc(-c2[nH]ncc2-c2cnn(-c3ccccc3)c2)c(O)cc1O
    .	17
> O=C(O)c1csc(Br)c1Br
    -3.3	1

Screens: PubChem BioAssay, ICCB-Longwood Screening Facility, Harvard Medical School
